Calb FLC = C. albicans growth modulation with fluconazole; AID 1979; growth inhibition, % (test concentration not listed); hit rate 0.57% among 300,000; C. albicans CaCi-2 (fluconazole-resistant clinical isolate) + fluconazole, Alamar Blue growth, 48 h;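 active = most replicates above 75%; inconclusive = exactly half above 75%; inactive = most below 75%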;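 note: all wells also contain fluconazole at 8 µg/ml as a sub-toxic cotreatment; 0% = median of DMSO wells and 100% = median of geldanamycin control wells; wells of about 8 µL received 7.5 nL stock; the first replicate is given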
Beta apoptosis = beta cell apoptosis inhibition. INS-1E cytokine-induced death, ATP luminescence, 48 h; percent of positive-control rescue, neutral wells zero. protection from apoptosis, % (test concentration not listed). hit rate 0.8% among 300,000. AID 435005;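 active = all replicates at 75% or more, or half of them and the mean; inconclusive = half reach 75% but not the mean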;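 note: 0% = cytokine-treated negative control wells and 100% = positive control rescue; higher means more ATP so stronger rescue from cytokine killing; wells of about 40 µL received 100 nL stock; the first replicate is given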
Bfl-1 A1 inh = inhibitors of the anti-apoptotic protein A1, read as caspase activation; caspase activation, % (test concentration not listed); MEF A1-2A-BIM cells, Caspase-Glo 3/7 luminescence, 3 h; percent of clofoctol response, vehicle zero; hit rate 0.066% among 330,000;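 active = over half of replicate activation scores above 10%, or exactly half above 10 with the replicate mean above 10; inconclusive = replicate mean below 10 yet half the replicates above 10; inactive = over half of replicates below 10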;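 note: wells of about 30 µL received 50 nL stock; many hits fall short of the cut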
Vif TR-FRET = HIV-1 Vif–A3G interaction blockers – biochemical, TR-FRET, GST-Vif 1-94, biotin-A3G peptide, dose response retest, primary screen (AID 1117319); TR-FRET GST-Vif / biotin-A3G peptide binding; higher % means a stronger effect; test concentration not given here; strong numbers were not always called active; inhibition, %; hits with a dose series show IC50 in µM; hit rate 0.57% among 260,000;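 active = above the screen mean plus three standard deviations and confirmed in dose response; inconclusive = results disagree or hit not tested in dose response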;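 note: Vif residues 1-94 fused to GST binding biotinylated APOBEC3G peptide 110-148; 0% = full assay without inhibitor and 100% = GST in place of GST-Vif; retest series ran down from 100 µM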
T cruzi repl = T. cruzi replication inhibition; hit rate 1.4% among 300,000; T. cruzi beta-gal in NIH3T3, luminescence, 90 h; inhibition, % (concentration not given with the values);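 active = mean inhibition across valid replicates above about 55%, limit read from the data; inconclusive = mean below that limit but half or more replicates reach it; inactive = mean below it, under half of replicates reach it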;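 note: signal also drops with host cell toxicity which is not excluded here; 0% = plate median of DMSO wells and 100% = zero luminescence signal; higher percent means less beta-gal luminescence so fewer parasites; stock transfer was 50 nL into about 50 µL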
Ecoli rRNA inh = inhibitors of bacterial rRNA selective over humanized ribosomes | E. coli WT GFP vs humanized-ribosome RFP mutants, fluorescence, 24 h; hits give low values; DMSO median 0, no signal -100 | GFP signal change (wild-type ribosome), % (test concentration not listed) | hit rate 1.6% among 350,000 | AID 720706;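 active = significant combined selectivity score with lowered wild-type GFP, culture density cut under 30%, mutant RFP and density less affected; inactive = any of these conditions unmet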; note: one replicate is shown; some compounds called inactive have numbers as strong as hits
RanGTP-Imp inh = inhibitors of RanGTP-importin-beta interaction, primary screen, biochemical, FRET, CFP-Ran, YFP-importin-beta, homogeneous; inhibition, % (no concentration beside the values); hit rate 1.1% among 300,000; cell-free CFP-Ran/YFP-importin-beta FRET ratio; AID 2216;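 active = most replicates above 15%; inconclusive = exactly half above 15%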;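 note: 0% = DMSO wells and 100% = Ran loaded with GDP instead of GTP; wells of about 40 µL received 100 nL stock; the first replicate is given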
AF4-AF9 inh = MLL-AF4/AF9 protein interaction inhibition | AlphaScreen, biotin-AF4 peptide binding to FLAG-AF9 | inhibition, % at 10 µM | hit rate 0.47% among 350,000 | AID 651704;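 active = every replicate reaching a set inhibition limit, whatever the replicate mean, cut at about 25% in these data; inconclusive = mean inhibition reaches that limit but some replicates miss it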;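 note: 0% = plate neutral control median and 100% = total signal loss; the record names both 10 and 1 µM as test concentration; the first replicate is given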
Target sequence (P42568 whole entry, looked up): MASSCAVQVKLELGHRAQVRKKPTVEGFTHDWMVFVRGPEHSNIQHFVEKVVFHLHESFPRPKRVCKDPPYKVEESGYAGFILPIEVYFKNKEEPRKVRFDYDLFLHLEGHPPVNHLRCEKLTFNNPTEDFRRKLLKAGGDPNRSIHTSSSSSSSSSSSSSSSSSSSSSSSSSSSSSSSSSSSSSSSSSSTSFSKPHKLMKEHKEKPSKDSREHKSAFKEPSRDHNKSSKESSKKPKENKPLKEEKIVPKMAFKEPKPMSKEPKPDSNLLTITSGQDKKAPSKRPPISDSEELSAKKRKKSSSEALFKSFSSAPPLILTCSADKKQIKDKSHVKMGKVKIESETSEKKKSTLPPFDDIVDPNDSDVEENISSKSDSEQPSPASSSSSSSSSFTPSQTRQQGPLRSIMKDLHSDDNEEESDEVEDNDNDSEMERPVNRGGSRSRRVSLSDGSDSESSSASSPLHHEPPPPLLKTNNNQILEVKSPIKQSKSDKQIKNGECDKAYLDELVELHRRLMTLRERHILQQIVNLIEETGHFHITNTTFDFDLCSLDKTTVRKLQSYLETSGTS
Ecoli rRNA inh OD600 = also measured in Ecoli rRNA inh; calls as there; OD600 change, %; measured here: OD600 growth;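 optical density of the mix in the first replicate; 0 = DMSO median and -100 = no signal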
Ecoli rRNA inh RFP = second read-out of Ecoli rRNA inh, no call of its own (marks repeat the call); RFP signal change, %; measured here: RFP humanized mutant strains;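 first replicate; 0 = DMSO median and -100 = no signal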
An asterisk follows results filed as active; ? = inconclusive; . = no result given; & = joins results of further samples.

SMILES	Calb FLC	Beta apoptosis	Bfl-1 A1 inh	Vif TR-FRET	T cruzi repl	Ecoli rRNA inh	Ecoli rRNA inh OD600	Ecoli rRNA inh RFP	RanGTP-Imp inh	AF4-AF9 inh
CC(NS(=O)(=O)c1ccc2ccccc2c1)c1ccccn1 (stereo unspecified)	.	-5	-0.6	.	.	0	-9	-4.7	.	0.0
Cc1cccc(C(C)C)c1NC(=O)CSc1nncn1C	-9	-5	0.7	0%	-12	13	5	-6.9	3.2	2.8
Cc1onc(-c2c(F)cccc2Cl)c1C(=O)c1ccccc1O	12	1	-0.3	1%	-15	-42*	-9.1*	-4.2*	4.0	-0.2
O=C(CSc1nc2c(oc3ccccc32)c(=O)n1CC1CCCO1)NCc1ccccc1 (stereo unspecified)	14	13	-0.9	-1%	1	9	9	-2.2	1.0	5.1
Cc1ccc(OCCn2c(C3CC(=O)N(Cc4ccccc4)C3)nc3ccccc32)cc1 (stereo unspecified)	1	10	0.6	3%	5	-38	-61	15	?	-2.4
CCc1cccc(CC)c1-n1c(SCc2cc(=O)n3ccsc3n2)nnc1-c1cccnc1	0	1	1.8	21%	-11	.	.	.	4.9	.
CCOc1cc(NC(=O)c2ccco2)c(OCC)cc1NC(=O)CCc1ccccc1OC	0	23	-0.8	2%	41	.	.	.	6.0	.
COc1ccc([N+](=O)[O-])cc1NC(=O)COC(=O)c1ccccn1	47	-4	1.0	-1%	-4	19	12	3.2	-1.2	1.5
CC1CCCC(C)N1C(=O)Cn1c(SCC(=O)Nc2ccc3c(c2)OCO3)nc2ccccc21 (stereo unspecified)	-1	-5	0.8	5%&4%	24	.	.	.	-0.4	.
CCN(C[C@H]1N[C@@](CC)(C(=O)OC)[C@H]2C(=O)N(Cc3ccccc3)C(=O)[C@@H]12)C(=O)Nc1ccc(OC)cc1	.	-2	-0.2	9%	.	13	13	-4.0	.	0.2
O=C1N=c2ccc(Br)cc2=C1c1sc(=O)[nH]c1O	-1	5	2.4	.	-6	.	.	.	0.1	.
CCOC(=O)CSc1ncnc2c1cnn2-c1ccccc1	-3	10	-1.2	2%	-11	.	.	.	9.9	.
CCOC(=O)N1CCN(C(=O)CN(C2CCCCC2)S(=O)(=O)c2ccc(Cl)cc2)CC1	1	-2	0.2	5%	10	-11	-25	8.9	-2.6	3.7
C=CCC[C@H](Cc1ccc(F)cc1)C(=O)OC[C@H](Cc1c[nH]c2ccccc12)NC(=O)[C@@H](CC=C)CC(=O)NCCO	.	6	1.2	.	.	-23	-44	23	.	-2.3
O=C(NCC1CCCO1)c1ccc2c(=O)n(CC3CCCO3)c(SCC(=O)N3CCCC3)nc2c1 (stereo unspecified)	5	-3	0.7	-11%	-10	-4	16	-3.1	?	-1.6
C=CCn1c(-c2ccncc2)n[nH]c1=S	4	-2	0.7	.	-21	7	8	1.3	-3.9	-3.1
O=C(c1ccc2c(c1)OCO2)N(CC1CCCO1)C1(C(=O)NC2CCCCC2)CCCCC1 (stereo unspecified)	5	.	1.0	-2%	9	.	.	.	4.5	.
COc1cc(OC)cc(C(=O)Nc2ccc3nc4n(c(=O)c3c2)CCCC4)c1	-4	6	-14	.	-8	3	5	0.2	-0.4	0.4
CN(C)C(=O)N1CCN(C(=O)N(C)C)CC1	-3	-8	1.0	1%	0	.	.	.	-6.9	.
O=C(CN1CCOCC1)NCCNC(=O)CN1CCOCC1	-5	-1	-0.6	-5%	-16	.	.	.	5.5	.
CCOc1ccc(C(=O)Nc2cccc(-c3cc4ccccc4oc3=O)c2)cc1[N+](=O)[O-]	4	2	1.2	-2%	16	.	.	.	9.4	.
COC(=O)C1=C(C)NC(C)=C(C(=O)OC)C1c1cc2ccc(C)cc2[nH]c1=O	3	.	0.4	2%	-2	.	.	.	-0.6	.
CCc1nn(C)c(N)c1C	-5	-6	0.0	0%	0	10	9	-6.6	-0.5	-1.5
O=[N+]([O-])c1ccccc1OCCNCc1ccccc1	10	-2	0.4	.	-30	5	3	2.1	0.5	-23
COc1ccc(NC(=O)NCCN2CCN(c3cc(OC)ccc3OC)CC2)cc1	-12	0	0.3	2%	-11	15	4	-0.5	-6.7	-0.1

Profiles, looked up by structure:
`CCc1nn(C)c(N)c1C` in the list: Calb FLC = -5; Beta apoptosis = -6; Bfl-1 A1 inh = 0.0; Vif TR-FRET = 0%; T cruzi repl = 0; Ecoli rRNA inh = 10; Ecoli rRNA inh OD600 = 9; Ecoli rRNA inh RFP = -6.6; RanGTP-Imp inh = -0.5; AF4-AF9 inh = -1.5
`COc1cc(OC)cc(C(=O)Nc2ccc3nc4n(c(=O)c3c2)CCCC4)c1` in the list: Calb FLC = -4; Beta apoptosis = 6; Bfl-1 A1 inh = -14; Vif TR-FRET = .; T cruzi repl = -8; Ecoli rRNA inh = 3; Ecoli rRNA inh OD600 = 5; Ecoli rRNA inh RFP = 0.2; RanGTP-Imp inh = -0.4; AF4-AF9 inh = 0.4

(list continues)
SMILES	Calb FLC	Beta apoptosis	Bfl-1 A1 inh	Vif TR-FRET	T cruzi repl	Ecoli rRNA inh	Ecoli rRNA inh OD600	Ecoli rRNA inh RFP	RanGTP-Imp inh	AF4-AF9 inh
Cc1ccc(-n2ncc3c2CCCC3NC(=O)CCN2CCCC2=O)cc1C (stereo unspecified)	-7	-2	1.3	4%	-3	-6	-7	-0.9	-0.1	-1.7
O=C1CCN(C(=O)Nc2ccccc2)N1	-14	-7	-0.1	3%	-3	.	.	.	-2.3	.
Nc1nnn(CC(=O)N/N=C/c2ccco2)n1	-3	-8	-0.3	-12%	-20	17	3	5.8	1.6	2.0
CCOC(=O)c1ccc(NC(=O)CSc2nnc(C)n2-c2ccccc2)cc1	-6	-2	0.2	-6%	9	.	.	.	-4.0	.
CCn1cc(CN2CCC(n3nccc3NC(=O)C3CCCC3)CC2)cn1	-3	-5	-0.2	.	-7	27	23	4.2	-0.5	-2.2
NC(=O)CC(NC(=O)c1ccc(Br)cc1)c1ccc(N2CCN(c3ccccn3)CC2)c([N+](=O)[O-])c1 (stereo unspecified)	-11	.	0.4	.	1	8	9	6.4	3.5	-0.2
N#Cc1cc(-c2ccccc2)oc1/N=C/c1ccccc1O	5	0	0.4	?	-17	.	.	.	3.7	.
COc1ccc(-c2nc(N)nc(C)c2-c2ccc(Cl)cc2)c(O)c1	7	-1	0.8	3%	11	-40	-62	-8.0	5.3	6.9
S=c1[nH]nc(-c2ccccc2Cl)n1CC1CCCO1 (stereo unspecified)	1	8	0.1	?	-11	.	.	.	0.8	.
CCOc1ccc(NC(=O)CCN2CCN(c3ccccc3)CC2)cc1	-19	-6	-0.4	0%	-8	.	.	.	4.3	.
Cc1noc(/C=C/N(C)C)c1S(=O)(=O)N1CCCC(C(=O)NCc2ccco2)C1 (stereo unspecified)	2	-2	1.0	5%	2	8	11	1.1	-1.6	-5.7
CC1Cc2cc(/C=C3/SC(=S)N(C)C3=O)ccc2O1 (stereo unspecified)	-5	0	-3.8	-5%	2	7	9	5.6	-0.3	1.4
O=C(Cn1ncc(Cl)c(Cl)c1=O)NC(=O)NC1CCCCC1	.	-4	1.2	9%	.	.	.	.	.	-3.8
CN(C)/C=C(\C#N)S(=O)(=O)c1ccccc1	-8	1	0.9	4%	-16	11	14	-0.5	2.4	-1.8
O=C(CNCC1CCCO1)N1CCN(S(=O)(=O)c2ccc3ccccc3c2)CC1 (stereo unspecified)	6	-9	0.2	?	-1	.	.	.	-0.9	.
COc1ccc(-c2[nH]ncc2-c2csc(C)n2)c(O)c1	-2	-4	-0.2	?	-8	0	-4	-1.8	0.5	2.1
Cc1ccc(CNC(=O)c2cccc3c2C(=O)c2ccc(N4CCC(C)CC4)cc2S3(=O)=O)cc1	.	15	-0.5	.	.	8	3	-3.6	.	0.5
CN(C(=O)COC(=O)c1cccnc1Cl)C1CCCCC1	.	-2	-0.7	0%	.	15	-2	0.9	.	1.6
Cc1nnc(N2CCCC(C(=O)Nc3cc(F)ccc3F)C2)c2nn(-c3ccccc3)c(C)c12 (stereo unspecified)	9	11	-0.3	.	25	.	.	.	-0.7	.

Structures listed so far that contain an aryl methoxy group (7):
SMILES	Calb FLC	Beta apoptosis	Bfl-1 A1 inh	Vif TR-FRET	T cruzi repl	Ecoli rRNA inh	Ecoli rRNA inh OD600	Ecoli rRNA inh RFP	RanGTP-Imp inh	AF4-AF9 inh
CCOc1cc(NC(=O)c2ccco2)c(OCC)cc1NC(=O)CCc1ccccc1OC	0	23	-0.8	2%	41	.	.	.	6.0	.
COc1ccc([N+](=O)[O-])cc1NC(=O)COC(=O)c1ccccn1	47	-4	1.0	-1%	-4	19	12	3.2	-1.2	1.5
CCN(C[C@H]1N[C@@](CC)(C(=O)OC)[C@H]2C(=O)N(Cc3ccccc3)C(=O)[C@@H]12)C(=O)Nc1ccc(OC)cc1	.	-2	-0.2	9%	.	13	13	-4.0	.	0.2
COc1cc(OC)cc(C(=O)Nc2ccc3nc4n(c(=O)c3c2)CCCC4)c1	-4	6	-14	.	-8	3	5	0.2	-0.4	0.4
COc1ccc(NC(=O)NCCN2CCN(c3cc(OC)ccc3OC)CC2)cc1	-12	0	0.3	2%	-11	15	4	-0.5	-6.7	-0.1
COc1ccc(-c2nc(N)nc(C)c2-c2ccc(Cl)cc2)c(O)c1	7	-1	0.8	3%	11	-40	-62	-8.0	5.3	6.9
COc1ccc(-c2[nH]ncc2-c2csc(C)n2)c(O)c1	-2	-4	-0.2	?	-8	0	-4	-1.8	0.5	2.1

Screening data (PubChem)

These rows are one share of the data; rates above refer to the full screens.
